Screens (PubChem)
HIV TAR-Tat: HIV-1 TAR-Tat binding disruption | HIV-1 TAR RNA, Tat peptide displacement FRET; hits give high values | z-score (test concentration not listed) | 100,000 tested, 0.6% active | AID 1259389;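 note: score is relative to mean and SD of negative controls; some compounds called inactive have numbers as strong as hits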
CDC25B CDK2 inh: human CDC25B-CDK2/CyclinA binding inhibition; P30305+P24941; HTRF CDC25B-CDK2/CyclinA binding, anti-His/anti-Flag; hits give high values; z-score (concentration not given with the values); 94,000 tested, 0.72% active;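 note: score is relative to mean and SD of negative controls; strong numbers were not always called active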
Numbers without * were called inactive; . = no result given.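 Rule for the calls: active = z-score from 3 up in half or more of its runs; inactive = the rest.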

mol | HIV TAR-Tat | CDC25B CDK2 inh
CC1(C)CC(=O)C2=C(C1)Nc1nc(SCc3cccc(F)c3)nn1C2c1ccccc1 (configuration not stated) | 1.1 | 1.4
CCOC(=O)c1[nH]c(C)c(C(=O)NC2CCN(C(=O)OCC)CC2)c1C | 0.98 | -0.11
Nc1ncnc2c1nc(SCCO)n2Cc1ccccc1 | 2.1 | -0.99
CCOC(=O)c1c(O)[nH]c(N=O)c1SC | . | -1.3
COc1ccc(C2CC(=O)Nc3nc(N)[nH]c(=O)c32)c(OC)c1 (configuration not stated) | -0.88 | -0.73
Cc1ccc(C)c(CSc2nc3ccncc3[nH]2)c1 | 0.8 | 1.2
O=C(Nc1cc(F)c2nc(N3CCOCC3)ccc2c1)C1CC1 | 0.91 | .
Cc1ccc2nc(SCC(=O)N3CCN(c4ccccc4)CC3)[nH]c2c1 | . | -1.4
Cc1ccc(Cn2c(=O)c3c(nc4n3CCN4Cc3ccccc3)n(C)c2=O)cc1 | 3.1 | .
O=C1COc2ccc(S(=O)(=O)N3CCN(C(=O)C4CC(=O)N(C5CCCC5)C4)CC3)cc2N1 (configuration not stated) | 0.42 | .

Reformatted with two lines to a compound: entries from further up
Every second line gives: HIV TAR-Tat | CDC25B CDK2 inh
Nc1ncnc2c1nc(SCCO)n2Cc1ccccc1
 : 2.1 | -0.99
CCOC(=O)c1c(O)[nH]c(N=O)c1SC
 : . | -1.3
COc1ccc(C2CC(=O)Nc3nc(N)[nH]c(=O)c32)c(OC)c1 (configuration not stated)
 : -0.88 | -0.73

The results go on.
mol | HIV TAR-Tat | CDC25B CDK2 inh
O=C(c1cccs1)N(Cc1ccco1)C1CCS(=O)(=O)C1 (configuration not stated) | 3.3 | -1.4
CCN(CC)CCNc1ncnc2c1cnn2-c1ccc(F)cc1 | 3.9 | .
CCOC(=O)c1cc(C(=O)CSc2ccc(C(F)(F)F)cn2)on1 | . | -1.9
COc1ccc2nc(NC3=NS(=O)(=O)C(c4ccc(C)c(C)c4)=C3C)sc2c1 | -1.4 | -1.3
Cc1nn(-c2nncc(-c3ccccc3)n2)c2c1C(c1cccs1)CC(=O)N2 (configuration not stated) | 1.4 | -0.4
Cc1ccc(C)n1-c1nnc(N2CCC(C(=O)NC3CCCCC3)CC2)s1 | 0.35 | -1
O=C(Nc1nc2nc(-c3ccccc3)cc(=O)n2[nH]1)c1cccs1 | 3.2 | -0.72
Cn1c(=O)c2c(-c3cccc(Cl)c3)c(NCCc3ccccc3)oc2n(C)c1=O | 1.5 | .
O=C(NCCSCc1ccco1)C1CCN(c2ccc(Cl)cc2)C1=O (configuration not stated) | 1.6 | .
O=C1c2cccnc2C(=O)N1Cc1ccc(F)cc1S(=O)(=O)Nc1ccc(F)c(Cl)c1 | 0.14 | .
Cc1ccc(S(=O)(=O)Nc2ccc3c(c2)CCCN3S(=O)(=O)c2ccc(C)cc2)cc1 | 0.28 | .
NNC(=O)c1csc(-c2ccc(C(F)(F)F)cn2)n1 | . | -1.3
COc1ccc(C2C=C(c3ccccc3)Nc3ncnn32)cc1 (configuration not stated) | 1 | -2.1
Cc1ccc(S(=O)(=O)NC(=O)N2CCC(Nc3nccc(C(F)(F)F)n3)CC2)cc1 | . | -1.5
Cc1cccc(NC(=O)C2CCCN(c3ncnc4onc(C)c34)C2)n1 (configuration not stated) | 1.1 | .
Cc1nc2sccn2c(=O)c1S(=O)(=O)Nc1ccc(N2CCOCC2)c(Cl)c1 | 0.26 | -0.43
CCc1nnc(SCC(=O)N(C)c2ccccc2)c2cc3sc(C)cc3n12 | 1.6 | .
O=C(CSc1nc(-c2cccs2)nc2cc(=O)[nH]n12)Nc1ccc(F)cc1 | 1.6 | .
Cc1csc(N2N=C(c3cccs3)CC2c2ccc(F)cc2)n1 (configuration not stated) | 0.23 | -0.31
Cn1c(=O)c2c(nc(NCc3ccco3)n2C)n(C)c1=O | -1.4 | -1.6
Cn1ncc2c(Nc3ccccc3)nc(N3CCN(CCO)CC3)nc21 | 1.4 | .
COc1ccc(C2=C(C)C(N3CCc4ccccc4C3)=NS2(=O)=O)cc1 | 1.4 | -4.1
COC(=O)CCCN1C(=O)c2cccc3cccc(c23)C1=O | 0.8 | -0.45
O=C(NCCNCCO)c1c(O)c2cccc3c2n(c1=O)CCC3 | 0.84 | .
COc1ccc(N(CC(=O)NCC2CCCO2)S(=O)(=O)c2c(C)noc2C)cc1 (configuration not stated) | . | -0.73
O=C(O)C1=CC(c2ccc(-c3ccccc3)cc2)n2nnnc2N1 (configuration not stated) | 0.25 | .
Nc1nc2ccc(-c3nc4ccccc4o3)cc2s1 | 1.7 | -1.9
Nc1cc(=O)nc(SCc2ccccc2)n1-c1ccc(F)cc1 | 2.8 | -1.5
CCOC(=O)NC1CS(=O)(=O)CC1NCC(=O)O (configuration not stated) | 0.65 | -1.1
CC(=O)OC1C(OC(C)=O)N(C(C)=O)C(=O)N1C(C)=O (configuration not stated) | -0.34 | 0.37
CCc1c(C)c(C#N)c2nc3ccccc3n2c1-n1ccnc1 | -0.39 | 0.76
O=c1c2c(nc3nc(-c4cccnc4)[nH]n13)CCC2 | 1.1 | 0.63
CC(C)c1nn2c(=O)cc(COC(=O)c3ccccc3Br)nc2s1 | 1 | .
N#Cc1c[nH]n2c(NC3CCCCC3)c(-c3ccc(F)cc3)nc12 | 0.99 | -1.8
CC1Cc2nc(SCC(=O)N3CCCC3)n(-c3ccc(F)cc3)c(=O)c2S1 (configuration not stated) | 1.7 | -1.2
O=S(=O)(Cc1ccc(Cl)cc1)c1c[nH]c2ccccc12 | . | 1.6
CC1CCCC(NC(=O)CN2C(=O)CSc3ncccc32)C1C (configuration not stated) | -0.93 | -2.2
Cc1nn2c(=O)c3c4c(sc3nc2[nH]c1=O)CCCC4 | . | -1.3
CCCCC(NC(C)=O)c1nc2ccccc2n1CCCC (configuration not stated) | 2.3 | -0.3
O=[N+]([O-])c1cccnc1NCCCn1ccnc1 | . | -1.9
Cc1cc(N2CCN(c3cccc(C)c3C)CC2)n2nc(-c3ccco3)nc2n1 | -8.6 | .
Cc1nc(N2CCCC(C(=O)NCCc3cccs3)C2)c2c(C)noc2n1 (configuration not stated) | 1.6 | .
Oc1ccccc1-c1nc(/C=C/c2ccc(F)cc2)no1 | -0.96 | -0.92
Cc1cc2c3c([nH]c2cc1S(=O)(=O)NCCCN1CCN(C)CC1)CC(C)(C)CC3=O | -0.36 | .
CN(C)c1ccc(NC(=O)CCSc2nc(-c3ccco3)cc(C(F)(F)F)n2)cc1 | -0.33 | -2
CN(CCCc1ccco1)C(=O)Cn1c(=O)oc2ccccc21 | -0.49 | .
CC1(C)C(=O)Nc2ccc(S(=O)(=O)N3CCN(c4ccccc4)CC3)cc21 | -0.39 | .
N#CCS(=O)(=O)c1ccc(OC(F)(F)F)cc1 | . | -1.3
S=C(Nc1ccc(Cl)cc1)Nc1ccc(-c2csnn2)cc1 | . | -0.61
O=C(NC1CCCC1)c1ccc2c(=O)n3nc(Nc4ccccc4)sc3nc2c1 | 2.1 | .

The listing continues.
mol | HIV TAR-Tat | CDC25B CDK2 inh
COc1ccc(CN2CCc3nc(N4CCN(c5ncccn5)CC4)ncc3C2)cc1OC | 0.5 | .
COc1ccc(S(=O)(=O)Nc2cc(OC)c(Cl)cc2OC)cc1 | 1.8 | -0.28
CC1=C(c2ccc(F)cc2)S(=O)(=O)NC1=NCCCN1CCCCC1C (configuration not stated) | -0.15 | .
CCOC(=O)N1CCC(N2C(=O)c3ccccc3C2Nc2cccc(F)c2)CC1 (configuration not stated) | 1.5 | -0.32
CSc1ccc(CNCCSc2nnnn2-c2ccccc2)cc1 | -0.79 | -1
CCN1CCCC1CNC(=O)C1CCCN(c2nn3c(=O)cc(C)nc3s2)C1 (configuration not stated) | 1.2 | 0.67
CC(C)c1ccc(N=C(N)NC#N)cc1 | . | -0.02
O=C(Nc1cccc(F)c1)N1CCCC1c1cccs1 (configuration not stated) | 1.6 | -2.6
Cc1cc(CNC(=O)NCC2CCCO2)c(C)n1-c1ccc(Cl)cc1 (configuration not stated) | -2.1 | .
CC(=O)OCC(=O)[C@@]1(O)CCC2C3CCC4=CC(=O)C=CC4(C)C3[C@@H](O)C[C@@]21C (some centres not stated) | -0.14 | .
CCCNC(=O)Cn1nc(C)c2sc3ccccc3c2c1=O | 1.3 | -3.1
COC(=O)c1ccccc1NC(=O)CN(c1ccc(Cl)cc1)S(C)(=O)=O | . | 0.1
Cc1cccc(NS(=O)(=O)c2ccc3nc(-c4ccccc4)[nH]c3c2)c1C | . | -0.88
CCCN(CCC)C(=Nc1ccccc1)OC(=O)/C=C/c1ccccc1 | . | 0.91
O=C1CCCN1CC(O)CS(=O)(=O)c1ccc(Cl)cc1 (configuration not stated) | . | -2.7
COc1cccc(N2C(=O)C3ON(c4ccccc4)C(c4ccccc4O)C3C2=O)c1 (configuration not stated) | -0.08 | -0.28
CN1C(=O)C(C)(C)c2cc(S(=O)(=O)N3CCCCC3)ccc21 | 1.1 | .
CCOC(=O)N1CCN(C(=O)c2cn(C3CCCC3)c(=O)c3c2c2ccccc2n3C)CC1 | 0.9 | -1.4
CCc1ccccc1Nc1ncnc2c1nc1n2CCCC1 | 1.3 | .
CC1Sc2ccc(S(=O)(=O)N3CCC(C(=O)N(C)Cc4ccco4)CC3)cc2NC1=O (configuration not stated) | 1.8 | .
Cc1ccc(-c2nnc3c4ccccc4c(C)nn23)cc1S(=O)(=O)N1CCN(c2ccccc2)CC1 | 1 | -1.6
Cc1cc(-c2ccc(C)c(S(=O)(=O)N(C)Cc3cnn(-c4ccccc4)c3)c2)on1 | 1.1 | .
Cc1cn2c(=O)cc(COC(=O)c3cccc(F)c3)nc2s1 | -0.47 | .
CCNc1nc(Nc2ccc(Cl)cc2)c2cnn(C)c2n1 | 1.9 | .
COc1ccc2[nH]c(C)c(CN3CCC(C)CC3)c(=O)c2c1 | 0.38 | -1.1
CC(=O)N1CCSc2ccc(S(=O)(=O)N3CCCCC3)cc21 | 1.6 | .
Cc1cc(=O)nc2c3ccccc3n(CC(=O)NCC3CCCO3)n12 (configuration not stated) | -4.7 | -1.4
COc1ccc(-c2nc(CSc3nc4ncccc4o3)c(C)o2)cc1OC | 0.95 | .
COc1ccc(-c2noc(N3CCN(c4ccc(Cl)cc4)CC3)n2)cc1OC | 0.52 | .
OC(CNCc1ccco1)C(F)(F)F (configuration not stated) | . | -3.9
CC1(C)CC(=O)c2cnc(NC(=O)c3cccc4ccccc34)nc2C1 | -1.1 | -1.1
Cc1ccc2[nH]c(C)c(CN3CCCC(C)C3)c(=O)c2c1 (configuration not stated) | 0.14 | 0.45
CCCCC[C@H](CC(=O)NO)C(=O)N[C@H](C(=O)N1CCC[C@H]1CO)C(C)C | 0.94 | -2
CC1=CC(=O)C(CCCCCC2=CC(=O)C(C)=CC2=O)=CC1=O | . | -1.8
Cc1nc2ccc(Cl)cn2c(=O)c1NC(=O)C1CCCCC1 | 1.4 | .
CCCn1nc(-n2cnnc2)c(NS(=O)(=O)c2ccc(N3CCCC3=O)cc2)c1C | 0.69 | -1.5
COC(=O)C1=CO[C@@H](O)[C@@H]2C(CO)=CC[C@H]12 | . | -3.3
Cc1sc2nc3c(C(=O)N4CCN(c5ccc(F)cc5)CC4)cccn3c(=O)c2c1C | -0.99 | -1.4
O=C(OCc1ccco1)c1cnn2c(C(F)(F)F)cc(-c3ccc(F)cc3)nc12 | 0.78 | -1.4
CCC(C)N(CCNc1ncnc2onc(C)c12)Cc1ccco1 (configuration not stated) | 0.39 | .
O=C(c1ccc(-n2ccc3ccccc32)s1)N1CCC(C(=O)N2CCN(c3ccccc3)CC2)CC1 | 0.13 | .
COc1cc(NCCCC(C)N)c2ncccc2c1 (configuration not stated) | 1.1 | -2.6
NC(=O)c1nc(-c2cccc(F)c2F)nc2c1[nH]c(=O)n2-c1ccc(F)cc1 | 0.38 | .
COc1cc(NC(=O)c2cc3cc4ccc(OC)c(Cl)c4nc3s2)cc(OC)c1 | 0.26 | .
CCOC(=O)c1cnc(SCC(=O)Nc2ccc([N+](=O)[O-])cc2)nc1N | . | 1
COC(=O)C1C(=O)c2c([nH]c(C(=O)OC3CCCCC3)c2C)CC1C (configuration not stated) | 1.1 | -0.02
Cc1ccc(CNCc2cccn2-c2sc(C)c(C)c2C(=O)O)cc1 | 1.3 | 5.6
O=C(NCc1cccnc1)C1=Cc2cc(Br)ccc2OC1 | 1.8 | .
CC(C)Cn1cc(NC(=O)NCCCN2CCCC2=O)c2ccccc2c1=O | 1.5 | .
CCN1CCN(c2sc(S(C)(=O)=O)nc2S(=O)(=O)c2ccc(Cl)cc2)CC1 | 0.63 | -1

Next section.
mol | HIV TAR-Tat | CDC25B CDK2 inh
O=C(CSc1nc(-c2ccc(F)cc2)cc(C(F)(F)F)n1)NCc1ccncc1 | -0.03 | 1
O=[N+]([O-])c1cccc(OCNCCCCCCO)c1 | . | -0.79
COc1cccc(CNc2nc3c(S(=O)(=O)c4ccccc4)nnn3c3ccsc23)c1 | -2.2 | .
Cc1ccc(-c2nc3cc(NC(=O)c4ccc5c(c4)OCCO5)ccc3o2)cc1 | . | -5.2
CCc1cccc(NS(=O)(=O)c2ccc(/C=C/c3onc(C)c3[N+](=O)[O-])cc2)c1 | 1.2 | .
CC(C)(C)OC(=O)NCCN=Cc1ccc(Cl)cc1 | . | -1.2
NC(=O)CSc1nccn(-c2ccccc2)c1=O | 0.88 | .
Cc1nn(S(=O)(=O)c2ccccc2)c(C)c1S(=O)(=O)N(C)c1ccccc1 | 0.19 | .

A portion taken from the entries so far:
mol | HIV TAR-Tat | CDC25B CDK2 inh
O=C(CSc1nc(-c2ccc(F)cc2)cc(C(F)(F)F)n1)NCc1ccncc1 | -0.03 | 1
O=[N+]([O-])c1cccc(OCNCCCCCCO)c1 | . | -0.79
COc1cccc(CNc2nc3c(S(=O)(=O)c4ccccc4)nnn3c3ccsc23)c1 | -2.2 | .
